# CBX7 inh = blocks human CBX7 binding to H3K27me3 peptide; AlphaScreen His6-CBX7 / biotin-H3K27me3 peptide binding; active compounds read low; AID 1224903; actives 1.1% (n = 66,000); O95931; normalised signal (fraction of DMSO) (concentration not given with the values); in the data active = normalised signal below about 0.5;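 also: 100 nL library stock added to about 20 µL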
# Target sequence (O95931 whole entry, looked up): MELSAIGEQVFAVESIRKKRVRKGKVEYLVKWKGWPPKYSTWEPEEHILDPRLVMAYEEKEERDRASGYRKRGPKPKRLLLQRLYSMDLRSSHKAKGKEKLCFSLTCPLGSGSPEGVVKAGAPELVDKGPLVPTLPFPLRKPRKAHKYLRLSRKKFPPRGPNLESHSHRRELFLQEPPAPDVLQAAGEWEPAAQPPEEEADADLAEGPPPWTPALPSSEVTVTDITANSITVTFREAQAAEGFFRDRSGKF
# CBX7 inh z-score = further read-out of CBX7 inh, marked with its call; z-score; measured here: z-score of CBX7 signal; some inactives read as strong as hits; reference of the scale not given here;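 same signal on another scale; lower means less binding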
# Active calls of the source: *; & = joins results of further samples.
SMILES,CBX7 inh,CBX7 inh z-score
COc1cccc(C(O)Cc2nc3ccccc3n2C)c1OC (configuration not stated),1,0.84
CCC1=Nc2cc(C(=O)NCc3ccc4c(c3)OCO4)ccc2Sc2ccc(Cl)cc21,1,-0.2
O=C(Cc1c(C(=O)O)[nH]c2ccc(Cl)cc12)Nc1ccc(F)cc1F,0.87,-1
O=C(NCc1ccc(F)cc1)C1CC(c2ccc(F)cc2)=NO1 (configuration not stated),1.1,3.3
Nc1ccc2[nH]c(=O)nc(-c3ccccc3)c2c1,1,0.06
Clc1ccc(-c2ncnn2-c2ccc(Cl)cc2)cc1,0.51,-4.1
Cc1ccc(NC(=O)c2sc3ncn(CC(=O)N4CCC(C)CC4)c(=O)c3c2C)cc1F,1.1,1.1
COc1ccc(Cl)cc1NC(=O)c1sc2ncn(CC(=O)N3CCCCC3)c(=O)c2c1C,1,-0.0081
O=C(Nc1ccc(F)cc1)c1cnc2sccn2c1=O,0.87,-1.5
CCCN(CCC)CCCNC(=O)C1CCN(c2nc3ccc(OC)cc3s2)CC1,1.4,4
COc1ccc(C2C(C(=O)N3CCOCC3)c3cc(OC)c(OC)cc3C(=O)N2C)cc1OC (configuration not stated),1.1,1.4
O=c1[nH]c(Nc2nc(-c3ccccc3)c3cc(Cl)ccc3n2)nc2c1CCC2,0.94,-0.77
COc1ccc(N2CCN(c3c(-c4ccccc4)c4cc(Cl)ccc4[nH]c3=O)CC2)cc1,0.74,-4.9
Cc1ccccc1CN1C(=O)C(C(C)C(=O)O)Sc2ccccc21 (configuration not stated),0.96,-0.84
CCCCN(CC)Cc1c(C)[nH]c2c(ccc3ccccc32)c1=O,1.1,1
COC(=O)c1ccc2nc(C)cc(Nc3cccc(C)c3C)c2c1,0.99,-0.27
COc1ccc(-c2nc(C#N)c(N3CC(C)OC(C)C3)o2)cc1 (configuration not stated),1,0.27
O=C(NCc1cccs1)c1ccc2c(c1)N(Cc1c(F)cccc1Cl)C(=O)CS2,1.1,2.7
COc1ccnc(Nc2ccc(C)cc2)n1,1,-0.03
c1csc(-c2nnc(Oc3ccc4ccccc4c3)c3ccccc23)c1,0.86,-0.16
COc1ccc2c(c1)c(CC(=O)NCc1ccccn1)c(C)n2C(=O)c1ccc(Cl)cc1,1.1,0.11
COCc1cc(=O)[nH]c(Nc2nc3ccccc3o2)n1,0.12*,-11*
COc1ccc(C(=O)N(Cc2nc(-c3ccccc3)no2)C(C)C)cc1,0.97,-0.63
Cc1onc(-c2ccccc2Cl)c1C(=O)Nc1ccc(OC(F)(F)F)cc1,1.1&0.88,2&-0.13
O=C(Nc1c(Cl)cccc1Cl)c1cc(-c2ccc(O)cc2)on1,1.1,1.8
CCc1ccc(OCC(=O)N(Cc2ccccc2)C2CCS(=O)(=O)C2)cc1 (configuration not stated),1,0.52
Cc1ccc2c(c1)NC(=O)C(CC(=O)NC1CCN(Cc3ccccc3)CC1)O2 (configuration not stated),1,0.61
Cc1ccc(S(=O)(=O)CCc2nnc(NC(=O)c3ccccc3)s2)cc1,1,0.37
COc1ccccc1-n1cnc2cc(C(=O)NCc3ccc4c(c3)OCO4)ccc21,1,0.24
CCC(=O)N1CCc2cc(S(=O)(=O)NCCC(=O)NCc3ccccc3)ccc21,1.1,2.2
O=C(c1cc(-c2ccc3c(c2)OCO3)nc2ccccc12)N1CCN(c2ncccn2)CC1,0.84,-0.22
Cc1ccn2c(NC(=O)c3ccc(C)c(C)c3)c(-c3ccc(F)cc3)nc2c1,1.2,1.7
Cc1cc(C)c(NC(=O)CSc2nccn2-c2ccc(Cl)cc2)c(C)c1,0.94,-0.45
COc1ccccc1C(=O)Nc1nnc(-c2ccc(Br)cc2)s1,1.1,1.4
CS(=O)(=O)N1CCCC(C(=O)NCc2ccc(F)cc2Cl)C1 (configuration not stated),1.1,1.8
Cc1ccc(NC(=O)Nc2ccc3c(c2)N(C)C(=O)CS3)cc1C,0.99,-0.3
O=C(Nc1nnc(C(c2ccccc2)c2ccccc2)s1)c1cccs1,1,0.13
CCN(CC)CCNC(=O)C1CCN(c2nnc(-n3cccc3)s2)CC1,1,0.32
CCOc1ccc(NC(=O)C(CC(C)C)NS(=O)(=O)c2ccc3c(c2)CCN3C(C)=O)cc1 (configuration not stated),1.1,1.7
O=C(Nc1ccc2oc(-c3ccccc3Cl)nc2c1)c1ccccc1,1,0.091

# Some of the entries so far, with tabs:
canonical_smiles	CBX7 inh	CBX7 inh z-score
COc1ccnc(Nc2ccc(C)cc2)n1	1	-0.03
c1csc(-c2nnc(Oc3ccc4ccccc4c3)c3ccccc23)c1	0.86	-0.16
COc1ccc2c(c1)c(CC(=O)NCc1ccccn1)c(C)n2C(=O)c1ccc(Cl)cc1	1.1	0.11
COCc1cc(=O)[nH]c(Nc2nc3ccccc3o2)n1	0.12*	-11*
COc1ccc(C(=O)N(Cc2nc(-c3ccccc3)no2)C(C)C)cc1	0.97	-0.63
Cc1onc(-c2ccccc2Cl)c1C(=O)Nc1ccc(OC(F)(F)F)cc1	1.1&0.88	2&-0.13
O=C(Nc1c(Cl)cccc1Cl)c1cc(-c2ccc(O)cc2)on1	1.1	1.8
CCc1ccc(OCC(=O)N(Cc2ccccc2)C2CCS(=O)(=O)C2)cc1 (configuration not stated)	1	0.52
Cc1ccc2c(c1)NC(=O)C(CC(=O)NC1CCN(Cc3ccccc3)CC1)O2 (configuration not stated)	1	0.61
Cc1ccc(S(=O)(=O)CCc2nnc(NC(=O)c3ccccc3)s2)cc1	1	0.37
COc1ccccc1-n1cnc2cc(C(=O)NCc3ccc4c(c3)OCO4)ccc21	1	0.24
CCC(=O)N1CCc2cc(S(=O)(=O)NCCC(=O)NCc3ccccc3)ccc21	1.1	2.2
O=C(c1cc(-c2ccc3c(c2)OCO3)nc2ccccc12)N1CCN(c2ncccn2)CC1	0.84	-0.22
Cc1ccn2c(NC(=O)c3ccc(C)c(C)c3)c(-c3ccc(F)cc3)nc2c1	1.2	1.7
Cc1cc(C)c(NC(=O)CSc2nccn2-c2ccc(Cl)cc2)c(C)c1	0.94	-0.45
COc1ccccc1C(=O)Nc1nnc(-c2ccc(Br)cc2)s1	1.1	1.4
CS(=O)(=O)N1CCCC(C(=O)NCc2ccc(F)cc2Cl)C1 (configuration not stated)	1.1	1.8
Cc1ccc(NC(=O)Nc2ccc3c(c2)N(C)C(=O)CS3)cc1C	0.99	-0.3
O=C(Nc1nnc(C(c2ccccc2)c2ccccc2)s1)c1cccs1	1	0.13

# The listing continues:
SMILES,CBX7 inh,CBX7 inh z-score
Cc1cc(C)cc(NC(=O)c2nccnc2CO)c1,1,0.17
Cc1ccc(Nc2nnc(-c3ccc(C)c(S(=O)(=O)NC(C)(C)C)c3)c3ccccc23)cc1,0.93,-1.4
CCC(C)NC(=O)c1sc2nc(-c3ccccc3)cn2c1C (configuration not stated),0.93,-1.3
CCOc1ccc(C(=O)Nc2nc3c(s2)CCc2ccccc2-3)cc1,1,1.1
CCCCCCOc1ccc(N2C(=O)CC(NCCc3ccc(Cl)cc3)C2=O)cc1 (configuration not stated),0.96,-1.1
CC(=O)Nc1ccc(S(=O)(=O)N2CCCCC2c2cccnc2)cc1 (configuration not stated),1.1,1.2
O=C(c1nsnc1-c1ccccc1O)N1CCCC1,1,0.2
CCc1ccc2c(c1)c(=O)c(S(=O)(=O)c1ccccc1)cn2CC(=O)Nc1cccc(C)c1,0.93,-1.2
COc1ccc(Cl)cc1NC(=O)CSc1nccn1-c1ccc(Cl)cc1,0.82,-0.63
Cc1ccc(CCNC(=O)CCn2nc(-c3ccccc3)ccc2=O)cc1,1,-0.11

# Sorted by formula weight (highest first): 3 of the compounds above
SMILES,CBX7 inh,CBX7 inh z-score
CCCCCCOc1ccc(N2C(=O)CC(NCCc3ccc(Cl)cc3)C2=O)cc1 (configuration not stated),0.96,-1.1
Cc1ccc2c(c1)NC(=O)C(CC(=O)NC1CCN(Cc3ccccc3)CC1)O2 (configuration not stated),1,0.61
O=C(Cc1c(C(=O)O)[nH]c2ccc(Cl)cc12)Nc1ccc(F)cc1F,0.87,-1

# The results go on:
SMILES,CBX7 inh,CBX7 inh z-score
COc1ccccc1OCC(=O)Nc1ncc(Cc2cccc(C)c2)s1,0.97,-0.03
Nc1c(C(=O)Nc2ccccc2)nnn1Cc1ccccc1,1.1,0.67
Cc1ccc(-c2cc(C(F)(F)F)n3ncc(C(=O)Nc4cccc(C)c4)c3n2)cc1,1.1,1.5
COc1cc2c(cc1OC)-c1nc3ccccc3c(=O)n1C(C)(C)C2,0.96,-0.93
Fc1ccc(-c2nnc3ccc(NCc4ccc5c(c4)OCO5)nn23)cc1,0.99,-0.16
CCc1cccc(C)c1N(C(=O)Cn1c(C)nc2ccccc21)C(C)COC (configuration not stated),1,0.14
COc1ccc(-c2noc(N(C)CC(=O)Nc3ccc(F)cc3)n2)cc1,1,0.9
COc1cccc(NC2c3ccccc3C(=O)N2c2ccc(C)cn2)c1 (configuration not stated),0.9,-3.3
CC(C)CCNC(=O)Nc1ccc2c(c1)N(C)C(=O)CS2,0.99,-0.64
Cc1ccc2nc(-c3cccnc3)c(NC3CCCCC3)n2c1,0.94,-2.8
Cc1ccc(CNC(=O)CC2Oc3ccc(Cl)cc3NC2=O)cc1 (configuration not stated),1.1,2.7
Cc1ccc(NC(=O)Cn2ncc3c2-c2ccccc2OC3)cc1F,0.9,-1.5
O=[N+]([O-])c1ccc(-n2nc(-c3ccc(Cl)cc3)cc2-c2ccc(Cl)cc2)c(Cl)c1,0.55,-6.9
Cc1ccc(C(C)C)c(OC(C)C(=O)Nc2c(C(=O)c3ccc(F)cc3)oc3ccccc23)c1 (configuration not stated),0.99,-0.031
Cc1ccc(CCNC(=O)CN(C)S(=O)(=O)c2cccc3cccnc23)cc1,0.98,-0.41

# The list is partial; rates above refer to the full screens.
